Cruzain inh Det: qHTS Assay for Promiscuous and Specific Inhibitors of Cruzain (with detergent). purified cruzain, Z-FR-AMC fluorescence, 0.01% Triton. Potency, µM, for inactives: max response, negative = inhibition, actives largely listed as inhibitors. actives 0.43% (n = 200,000). AID 1478, 2009;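 further: plate controls were neutral wells for no effect and buffer without enzyme for full effect; nearly all actives have a fitted effect of over 40% in size; top concentration of the series not given in the record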
Target sequence (P25779 123-467 limits assumed): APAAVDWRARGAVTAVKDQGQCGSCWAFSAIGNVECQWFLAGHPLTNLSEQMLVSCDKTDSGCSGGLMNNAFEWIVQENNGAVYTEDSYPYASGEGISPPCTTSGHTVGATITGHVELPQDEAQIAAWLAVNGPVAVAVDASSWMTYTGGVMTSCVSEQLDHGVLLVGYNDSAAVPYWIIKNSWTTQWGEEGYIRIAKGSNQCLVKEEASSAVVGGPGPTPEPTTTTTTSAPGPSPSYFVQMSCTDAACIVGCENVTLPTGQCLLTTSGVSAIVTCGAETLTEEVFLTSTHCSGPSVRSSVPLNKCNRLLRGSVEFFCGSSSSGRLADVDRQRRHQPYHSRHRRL
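Compounds were screened in titration against cruzain (1.5 nM) with 0.01% Triton X-100 to counter colloidal aggregation. Activity was the AMC fluorescence increase over 60 s after adding 2 uM Z-FR-AMC at pH 5.5.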
Lassa entry inh: qHTS for Inhibitors of binding or entry into cells for Lassa Virus. Lassa virus pseudotype entry inhibition, cell reporter; control for the full effect not named in the record. AID 540256, 2011. Potency, µM (highest dose often 37.9 µM), inactives show at the top dose activity change, negative = inhibition, usual class: inhibitors. actives 1.2% (n = 300,000); active means well fitted inhibition curve with a large enough effect; inconclusive means small, poorly fitted or top-dose-only effect, or effect the other way; inactive means flat fitted curve, though single readings scatter; tested in HEK293 cells; further: on the % scale 0 is the no-effect control and ±100 the full control effect; nearly all actives have a fitted effect of over 50% in size; luciferase read-out
2A StopGo: High Throughput Screening for Foot and Mouth Disease Virus Antivirals; Potency, µM (series often up to 57.9 µM), without a hit: at the top dose signal change, negative = less light; actives 1.2% (n = 410,000); human cells with a luciferase reporter of 2A StopGo recoding; control for the full effect not named in the record; active = well fitted falling curve with a large enough effect; inconclusive = small, poorly fitted or top-dose-only effect; inactive = no such curve, though single readings can be large or run the other way; tested in HEK293T cells; further: on the % scale 0 is the no-effect control and ±100 the full control effect; nearly all actives have a fitted effect of over 45% in size; luciferase light after 4 h
NS1 function inh: qHTS Assay for Inhibitors of Influenza NS1 Protein Function; S. cerevisiae slowed by influenza A NS1, growth recovery by OD600; Potency, µM (doses to about 46.1 µM), for inactives: at the top dose activity, positive = more growth; actives 0.4% (n = 270,000); AID 2326, 2010; active means well fitted rising curve with a large enough effect; inconclusive means small, poorly fitted or top-dose-only effect; inactive means no such curve, though single readings can be large or run the other way; further: nearly all actives have a fitted effect of over 50% in size
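Read-out: OD600 growth recovery of NS1-expressing budding yeast. Cells grown overnight at 30C in -URA glucose medium, washed, resuspended and diluted 1:100 in 2% galactose assay medium, pH 6.0. Same strain lacking NS1 served as positive control.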
RE007 growth inh: qHTS Assay for Inhibitors of the HIV-1 protein Vpr | S. pombe RE007 Vpr strain, BacTiter-Glo ATP luminescence, 24 h; control for the full effect not named in the record | actives 0.21% (n = 360,000) | Potency, µM (doses to about 92.2 µM), for inactives: at the top dose activity change, negative = less growth; active = well fitted falling curve with a large enough effect; inconclusive = small, poorly fitted or top-dose-only effect; inactive = no such curve, though single readings can be large or run the other way;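 further: on the % scale 0 is the no-effect control and ±100 the full control effect; nearly all actives have a fitted effect of over 50% in size; the assay follows cell death caused by Vpr and the record does not say whether a fall means rescue or toxicity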
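Fission yeast RE007 carrying one integrated HIV-1 vpr copy, seeded at OD 0.01 in PMG+AL medium with 23 nL pinned compound. Grown 24 h at 30 degrees; viability read by BacTiter-Glo luminescence after 5 min.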
Marburg entry inh: qHTS for inhibitors of binding or entry into cells for Marburg Virus. Marburg virus pseudotyped entry inhibition, cell reporter; control for the full effect not named in the record; about a third of the inactives were read at about 46 µM. Potency, µM (titrated, usually from 37.8 µM), for inactives: at the top dose activity change, negative = inhibition, most hits filed as inhibitors. actives 1.8% (n = 300,000); active = well fitted inhibition curve with a large enough effect; inconclusive = small, poorly fitted or top-dose-only effect, or effect the other way; inactive = flat fitted curve, though single readings scatter; tested in HEK293 cells; about a fifth of its hits are not listed in these tables; further: on the % scale 0 is the no-effect control and ±100 the full control effect; luciferase read-out
Cruzain inh noDet: qHTS Assay for Promiscuous and Specific Inhibitors of Cruzain (without detergent); Cruzipain (Trypanosoma cruzi), P25779; purified cruzain, Z-FR-AMC fluorescence, no detergent; actives 2.3% (n = 200,000); Potency, µM, inactives show max response, negative = inhibition, actives largely listed as inhibitors;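 further: plate controls were enzyme without inhibitor for no effect and buffer without enzyme for full effect; nearly all actives have a fitted effect of over 40% in size; top concentration of the series not given in the record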
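Detergent-free condition (0.00005% Triton X-100) in acetate buffer pH 5.5 with DTT. 1.5 nM enzyme and compound were pre-mixed 15 min, then 2 uM Z-FR-AMC substrate added; reaction progress from fluorescence change between first and third reads (60 s).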
SARS PLpro yeast: qHTS of Yeast-based Assay for SARS-CoV PLP. Potency, µM (series often up to 32.9 µM), for the others: at the top dose activity, positive = growth rescue. S. cerevisiae expressing SARS-CoV PLpro, growth rescue; control for the full effect not named in the record. actives 0.19% (n = 330,000). AID 485353, 2010; active means well fitted rising curve with a large enough effect; inconclusive means small, poorly fitted or top-dose-only effect; inactive means no such curve, though single readings can be large or run the other way; further: 0% is about no effect; nearly all actives have a fitted effect of over 55% in size; growth read by luminescence after 48 h
* hit, by the source's call; u = inconclusive; x = no result given; & = joins results of further samples; [ ] = dose if it differs, or a comment. Unless noted, the call rests on the fitted dose curve; in most records, active means well fitted curve in the direction sought with a large enough effect; inconclusive means small, poorly fitted or top-dose-only effect, or another doubt; inactive means no such curve, though single readings can be large; an effect the other way counts as inactive or inconclusive. Potency means the concentration at half of the fitted maximal effect. An unsorted share of the library; any-hit rate near 4.7%.

SMILES	Cruzain inh Det	Lassa entry inh	2A StopGo	NS1 function inh	RE007 growth inh	Marburg entry inh	Cruzain inh noDet	SARS PLpro yeast
COc1ccccc1-c1c(C)nn2c(C(F)(F)F)cc(-c3ccccc3)nc12	-6.6%	-16%[46.1 µM]	-6%	x	x	-25%[46.1 µM]	-10%	x
O=C(COC(=O)c1cc(=O)[nH]c2ccccc12)Nc1ccc(Cl)c(S(=O)(=O)N2CCOCC2)c1	x	9%	-10%	x	19%	u	x	x
C=CCc1cccc2cc(C(=O)Nc3ccc(NC(C)=O)cc3)c(=O)oc12	x	-4%	-12%	1%	17%	-5%[46.1 µM]	x	0%
Fc1ccc(Br)cc1SCCc1ccncc1	x	-5%	u	-65%	-9%	-7%	x	-5%
COC(C[C@@H](O)[C@@H](C)[C@H](O)COCc1ccccc1)OC	x	x	-16%	0%	10%	x	x	4%
O=C(NCc1cccnc1)c1ccc(COc2ccccc2Cl)cc1	x	x	-26%	3%	-13%	x	x	0%
COC(CNC(=O)C(=O)Nc1ccc2c(c1)N(S(=O)(=O)c1cccs1)CCC2)OC	x	-22%[46.1 µM]	-15%	x	-2%	-19%	x	-3%
CC/C(C)=C1/NC(=O)NC1=O	x	-1%[46.1 µM]	-7%	x	8%	u	x	x
Cc1nc2ccc(NC(=O)c3ccco3)cc2s1	x	-14%	38%[activator]	-33%	3%	u	x	0%
O=C(NC(=S)Nn1cnnc1)c1ccccc1Cl	x	30%[46.1 µM]	5%	-1%	13%	3%[46.1 µM]	x	2%
CCn1nnnc1SCC(=O)N(C1CCCCC1)C1CCCCC1	-1.0%	-2%	-18%	-17%	-1%	u	11%	4%
O=C1CCCC2=C1C(c1cccs1)n1nc(SCc3ccccc3F)nc1N2 (stereo not given)	-8.0%	-22%	u	-4%	-15%	u	0%	3%
COc1ccc(CNCCC(c2ccc(OC(C)C)cc2)C(C)C)cc1OC (stereo not given)	5.3%	21µM*	u	-44%	6%	u	-2%	-9%
CCc1ccc(CNC(=O)c2ccc(CS(=O)c3ccc(Br)cc3)o2)cc1 (stereo not given)	-24%	u	2%	x	x	1%[46.1 µM]	u	x
CCS(=O)(=O)N1CCC(C(=O)NCCc2ccc(OC)c(OC)c2)CC1	0.6%	-14%	18%	0%	9%	4%	-8%	-7%
CCCn1nc(C(=O)NNC(=O)c2cccc(S(=O)(=O)NC(C)C)c2)c2ccccc2c1=O	x	5%	12%	4%	-4%	-5%	x	9%
OC(CCN1CCOCC1)(c1ccc(Cl)cc1)C1CCCCC1 (stereo not given)	1.2%	u	-9%	-20%	-11%	u	-2%	4%
N#Cc1ccc(N2Cc3ccccc3C2=NC(=O)c2cccnc2Cl)cc1	-5.9%	u	32%[activator]	-8%	-17%	1%	-10%	-4%
CC(Oc1ccc(C#N)cc1)C(=O)Nc1ccc(-n2cnnn2)cc1 (stereo not given)	x	u	-6%	x	-8%	-7%	x	0%
C=CCSc1nc2c(c(=O)n(C)c(=O)n2C)n1CC	-1.2%	-3%	-22%	-10%	-13%	-7%	7%	3%
Cc1c(Cl)cccc1S(=O)(=O)N1CCC(C(=O)NNC(=O)C2CC2)CC1	x	0%	-22%	-3%	-4%	20%[46.1 µM]	x	-1%
CCCN1C(=O)c2ccccc2NC1c1ccc(Br)cc1 (stereo not given)	x	u	-25%	-6%	68%	u	x	-4%
Cc1ccc(C(=O)NC(C)C(c2cccs2)N2CCCC2)s1 (stereo not given)	x	-4%	-7%	1%	-14%	-5%[46.1 µM]	x	-7%
Cc1cccc(N2CCN(c3ccc4cc(S(=O)(=O)N5CCC(C)CC5)ccc4n3)CC2)c1C	3.9%	u	-22%	x	x	x	-4%	x
CCOc1ccc(S(=O)(=O)N(CC(=O)NCc2ccccc2OC)c2ccccc2)cc1	-5.4%	u	u	x	x	u	-13%	x
CCCc1nc2n[nH]c(N)c2c2c1CCC2	0.2%	0%	-22%	2%	-8%	0%	-6%	4%
O=C(Cn1cnc2c(nnn2Cc2ccccc2F)c1=O)N1CCN(c2ccccc2)CC1	0.9%	15%	x	-10%	8%	14%	6%	4%
COc1ccc(C(C(=O)NC(C)(C)C)N(C(=O)CNC(=O)c2cccs2)c2cccnc2)cc1OC (stereo not given)	x	3%	0%	-3%	12%	7%[46.1 µM]	x	0%
CC1CCCCC1NC(=O)COC(=O)c1ccccn1 (stereo not given)	11%	3%	-24%	-4%	-8%	-2%	2%	-9%
Cc1ccc(OCCNC(=O)C2CC(=O)N(c3ccc(C)cc3)C2)cc1 (stereo not given)	3.1%	-2%	-11%	1%	u	1%	2%	6%

Looked up one by one from the list above:
SMILES	Cruzain inh Det	Lassa entry inh	2A StopGo	NS1 function inh	RE007 growth inh	Marburg entry inh	Cruzain inh noDet	SARS PLpro yeast
COc1ccccc1-c1c(C)nn2c(C(F)(F)F)cc(-c3ccccc3)nc12	-6.6%	-16%[46.1 µM]	-6%	x	x	-25%[46.1 µM]	-10%	x
Cc1ccc(OCCNC(=O)C2CC(=O)N(c3ccc(C)cc3)C2)cc1 (stereo not given)	3.1%	-2%	-11%	1%	u	1%	2%	6%
CC/C(C)=C1/NC(=O)NC1=O	x	-1%[46.1 µM]	-7%	x	8%	u	x	x
COc1ccc(CNCCC(c2ccc(OC(C)C)cc2)C(C)C)cc1OC (stereo not given)	5.3%	21µM*	u	-44%	6%	u	-2%	-9%
Cc1cccc(N2CCN(c3ccc4cc(S(=O)(=O)N5CCC(C)CC5)ccc4n3)CC2)c1C	3.9%	u	-22%	x	x	x	-4%	x
Fc1ccc(Br)cc1SCCc1ccncc1	x	-5%	u	-65%	-9%	-7%	x	-5%
Cc1nc2ccc(NC(=O)c3ccco3)cc2s1	x	-14%	38%[activator]	-33%	3%	u	x	0%

(more compounds)
SMILES	Cruzain inh Det	Lassa entry inh	2A StopGo	NS1 function inh	RE007 growth inh	Marburg entry inh	Cruzain inh noDet	SARS PLpro yeast
CCCCCC(=O)Nc1ccc2oc(-c3ccncc3)nc2c1	-11%	-14%	-9%	-118%	-10%	u	u	-7%
CC(=O)NCCc1nc2ccccc2[nH]1	-2.2%	x	-18%	-6%	-3%	x	-7%	5%
COCCCNC(=O)CSc1nc2cc3c(cc2c(=O)n1CCCCCC(=O)NCc1ccc(OC)cc1)OCO3	2.3%	14%[46.1 µM]	24%	x	x	x	-3%	x
COc1ccc2oc(=O)c(-c3nc(-c4cccs4)no3)cc2c1	0.4%	-3%[46.1 µM]	5%	x	x	x	4%	x
COC(=O)Cc1c(O)ccn(Cc2ccc(Cl)c(Cl)c2)c1=O	x	x	-21%	-7%	-2%	x	x	-1%
COc1ccc(CNc2nc(NCc3ccc(OC)cc3)n(S(C)(=O)=O)n2)cc1	-3.0%	u	-28%	-6%	-8%	0%&0%	-7%	1%
COCC(=O)Nc1c(C(=O)Nc2ccccc2OC)oc2ccccc12	12%	-2%	-2%	-9%	5%	-27%	-6%	-1%
Cc1cccc(-n2c3nc(=O)[nH]c(=O)c-3cc3c(Cl)cccc32)c1C	-8.4%	-1%[46.1 µM]	u	x	x	x	-17%	x
Cc1[nH]n(C)c(=O)c1N=Nc1ccc(S(C)(=O)=O)cc1	x	2%	16%	-1%	1%	8%	x	-1%
Cc1ccc(C)c(NC(=O)c2cnn(-c3ccc(F)cc3F)c2C2CCNCC2)c1	-1.3%	24%[46.1 µM]	-14%	x	x	x	-3%	x
COc1ccc(C(=O)N2CCc3cc(OC)c(OC)cc3C2COc2ccccc2OC)cc1 (stereo not given)	0.0%	u	-2%	x	x	x	u	x
CN(CCCCN1CCOCC1)Cc1nc(-c2ccc3c(c2)OCO3)no1	x	-3%[46.1 µM]	14%	0%	5%	u	x	1%
CC(C)NC(=O)C1CCN(C(=O)c2cc3sccc3n2Cc2ccc(Cl)cc2)CC1	-1.8%	x	16µM*	x	x	u	-6%	x
CCSc1nnc(CSc2ncccn2)n1C	x	5%	-2%	x	3%	20%[46.1 µM]	x	5%
Cc1cc(C)c(S(=O)(=O)N2CCCC2=O)c(C)c1N(C)S(C)(=O)=O	x	x	2%	19%	0%	x	x	2%
Nc1nonc1-n1nncc1-c1ccccc1	1.9%	-1%	-1%	-1%	6%	2%[46.1 µM]	10%	1%
Cc1cccc(C)c1OCCn1c(CCNC(=O)C2CCCCC2)nc2ccccc21	3.5µM*	-17%[46.1 µM]	-15%	x	x	u	5%	x
CCCCN(C)S(=O)(=O)c1ccc(C(=O)Nc2nnc(C3=COCCO3)o2)cc1	x	-4%	-21%	x	-2%	u	x	8%
CC(C)c1ccc(N(C(=O)c2csnn2)C(C(=O)NC2CCCC2)c2cccnc2)cc1 (stereo not given)	x	1.6µM*	1%	-15%	-1%	-9%[46.1 µM]	x	-2%
Cc1ccc(-c2nnc3c4ccccc4c(C)nn23)cc1NC(=O)CN1CCOCC1	1.1%	x	x	1%	x	x	2%	-2%
COc1cc(CN2CCc3nc(Nc4ccc5c(c4)OCCO5)ncc3C2)cc(OC)c1OC	-1.0%	u	-11%	x	x	x	1%	x
CCc1cc2c(NCCN3CCCCC3)ncnc2s1	-2.3%	u	-2%	0%	5%	u	10%	-3%
Oc1ccccc1C1NN=C(c2ccccc2)S1 (stereo not given)	x	u	-19%	-14%	-13%	u	x	-5%
CSc1ccccc1C(=O)Nc1c(C)cccc1C	x	x	2%	0%	6%	0%[46.1 µM]	x	8%

High-throughput results as filed in PubChem BioAssay.
